Tg IFNy HTS – T. gondii growth inhibition under IFN-gamma; Toxoplasma gondii growth in IFN-gamma-treated host cells; stronger effect = lower value; reference of the scale not given here; hit rate 3.8% among 69,000; activity change, negative = inhibition, %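 (about 20 µM by stock and volumes)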;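 active = below -70%; inconclusive = fit judged invalid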;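 also: host cells are HeLa cells infected with Toxoplasma gondii; parasite growth read as luciferase light; one replicate is shown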
* hit, by the source's call; i = inactive; ? = inconclusive; & = joins results of further samples; ! = not active in a repeat. The list is partial, so the mix of outcomes need not match the whole.

SMILES | Tg IFNy HTS
O=C(Nc1ccccc1)C1CCN(S(=O)(=O)c2ccc(-n3cnnn3)cc2)CC1 | 8.4
CC(=O)N1CCCc2sc(C(=O)C(C)C)nc21 | 146.0
COc1ccc(C2N(Cc3ccccc3)CCN2Cc2ccccc2)cc1O | -23.8
O=C(c1ccccc1Cl)N1CCC2(CC1)Nc1ccccc1-n1cccc12 | 16.4
COc1ccc(Oc2cccc(F)c2CNC(=O)c2ccc(OC)cc2)cc1 | -88.5*
COc1cccc(C(=O)Nc2n[nH]c3ccccc23)c1 | 24.6
C[C@](N)(Cc1ccc(O)cc1)C(=O)O | 5.7
CC(NC(=O)c1ccc(=O)n(C)c1)c1ccccc1-n1cccn1 (stereo not given) | -3.4
COc1ccc(-c2nc3c(s2)CN(C(=O)Nc2ccc(C)c(C)c2)CC3)cc1OC | -82.8*
O=C(NCc1cn2ccsc2n1)C1CC2(CCNCC2)CN1 (stereo not given) | 12.5
CN(C)C(=O)N1CCC(c2nc3ccc(-c4ccncc4)cn3n2)CC1 | 18.9
Cc1cc(C(=O)NCCN2CCOCC2)nn1-c1c(Cl)cc(Cl)cc1Cl | 4.4
CO[C@H]1CCN(C(=O)c2cc(C3CC3)on2)C[C@@H]1Cc1cccc(C)c1 | -1.2
CCn1nc(C(=O)N2CCN(Cc3ccncc3)CC2)c2c1CCN(C(=O)c1sc(C)nc1C)C2 | 3.5
Cc1ccc(-c2ccc([C@H]3[C@@H](CO)N4C(=O)CN(C(=O)NC(C)C)C[C@@H]34)cc2)cc1 | -20.1
CC(Cc1ccc2c(c1)OCO2)CN1CCC(NS(C)(=O)=O)CC1 (stereo not given) | 1.7
CCOC(=O)c1nc(Nc2ccc(OC)c(OC)c2)c2ccccc2n1 | 17.9
COCC(=O)N1CC(=O)N2[C@H](CO)[C@@H](c3ccc(-c4ccccc4F)cc3)[C@@H]2C1 | 5.1
COc1ccc(NC(=O)Nc2ccc(-c3nc(-c4ccccc4)co3)cc2)c(OC)c1 | -5.6
O=C(NC(=O)c1ccc(C(F)(F)F)cc1)NN1CCCCCC1 | -77.0*
Cc1ccc(-c2nc(C)c(CCNC(=O)C(=O)Nc3cccc(Cl)c3C)s2)cc1 | 11.8
COC(=O)c1ccccc1NC(=O)N1CCC2(CC1)Nc1cc(C)ccc1-n1cccc12 | 316.8
COc1ccccc1-c1noc(C)c1C(=O)NC(c1ccc2c(c1)OCCO2)C(C)C (stereo not given) | -0.4
CCCC(=O)N1CCc2c([nH]c3ccccc23)C1c1cccc(OCC)c1 (stereo not given) | 496.6
Cc1ccccc1NC(=O)c1nnn(Cc2nc(-c3ccccc3)oc2C)c1C | 28.7
COc1ccc2c(c1)NC1(CCN(C(=O)Cc3ccccc3Cl)CC1)c1cccn1-2 | 8.5
COc1cc(CN(C)Cc2sccc2C)cc(F)c1O | 66.7
CCC1=NC2(CCN(C(=O)C(CC)N3Cc4ccccc4C3=O)CC2)C(=O)N1 (stereo not given) | -35.6
Cc1cccc(OCC(=O)Nc2ccc(-c3nc(-c4ccccc4)co3)cc2)c1C | -11.5
COc1ccc(CN(C)C[C@H]2Oc3ccc(NC(=O)Nc4ccc5c(c4)OCO5)cc3CC(=O)N([C@@H](C)CO)C[C@@H]2C)cc1 | 2.6

Among those listed so far, these contain a halogen:
SMILES | Tg IFNy HTS
O=C(c1ccccc1Cl)N1CCC2(CC1)Nc1ccccc1-n1cccc12 | 16.4
COc1ccc(Oc2cccc(F)c2CNC(=O)c2ccc(OC)cc2)cc1 | -88.5*
Cc1cc(C(=O)NCCN2CCOCC2)nn1-c1c(Cl)cc(Cl)cc1Cl | 4.4
COCC(=O)N1CC(=O)N2[C@H](CO)[C@@H](c3ccc(-c4ccccc4F)cc3)[C@@H]2C1 | 5.1
O=C(NC(=O)c1ccc(C(F)(F)F)cc1)NN1CCCCCC1 | -77.0*
Cc1ccc(-c2nc(C)c(CCNC(=O)C(=O)Nc3cccc(Cl)c3C)s2)cc1 | 11.8
COc1ccc2c(c1)NC1(CCN(C(=O)Cc3ccccc3Cl)CC1)c1cccn1-2 | 8.5
COc1cc(CN(C)Cc2sccc2C)cc(F)c1O | 66.7

The list goes on:
SMILES | Tg IFNy HTS
Cc1cc(C)n(Cc2cccc(C(=O)N(C)Cc3c(C)nn(C)c3C)c2)n1 | 10.9
O=C(O)c1ccccc1C1CCN(C/C=C/c2ccccc2)C1 (stereo not given) | 11.4
CC(C)CCN1Cc2c(C(=O)N3CCCCCC3)ncn2-c2ccccc2S1(=O)=O | -3.4
CN1C(=O)c2cc(NC(=O)c3cccc(C(F)(F)F)c3)ccc2OC[C@H]2O[C@@H](CC(=O)NCCN3CCCC3)CC[C@H]21 | 4.0
COc1ccc2c3c([nH]c2c1)[C@H](CO)N(C(=O)CN1CCOCC1)CC31CCN(CC2CCCC2)CC1 | -48.4
O=c1c2ccccc2nc2c3ccccc3c(N3CCCCCC3)nn12 | -5.0
Cc1cc(C)cc(NC(=O)CC(=O)N(C)C(C)c2ccon2)c1 (stereo not given) | 3.3
Cc1nc(-c2cc(C(=O)NCCN3CCOCC3)c3ccccn23)cn1C(C)C | 13.0
C[C@@H]1CN([C@@H](C)CO)C(=O)c2cc(Br)cnc2O[C@H]1CN(C)C(=O)Nc1ccc2c(c1)OCO2 | i
CN(c1ccc(C(=O)NC2CCCCC2)cc1)S(=O)(=O)c1cccs1 | 35.5
CCN(CC)CC1CN(c2ncccn2)Cc2nccn2C1 (stereo not given) | 15.0
NCCn1nc(C2CCN(C(=O)c3csc4c3CCCC4)C2)c2nccnc21 (stereo not given) | -6.5
COc1cccc(CNC(=O)c2nc(-c3ccc(C)cc3)n3c2CCCCC3)c1 | -107.9*
Cc1cnc(NCc2ccc(C(=O)N(C)C)o2)nc1N(C)C | 0.8
CN(C)C(=O)N1CCO[C@@H]2[C@H]1CC[C@H]2OCCN1CCCC1 | -3.0
O=C(CCN1CCCCO1)NCc1ccc2c(c1)OCCCO2 | 3.3
O=C(NCC1(Cn2cccn2)CC1)C(=O)N1CCc2ccccc21 | 4.9
CO[C@@H](CN(C)S(=O)(=O)c1cccc(Cl)c1)[C@H](C)CN(C(=O)Nc1ccccc1F)[C@H](C)CO | 80.6
COC1CC2(CCN(c3nncs3)CC2)c2ccc(C)cc21 (stereo not given) | -42.1
NC(=O)c1cnn(-c2ccc(F)cc2)c1N | 2.7
NC(=O)c1ncn([C@@H]2O[C@H](CO)[C@@H](O)[C@H]2O)c1N | -41.4
CNS(=O)(=O)CCn1cnc(-c2ccccc2)c1-c1ccc(C)cc1F | -9.4
COCCN1C(=O)CCc2cc(NC(=O)c3cncc(Br)c3)ccc21 | 1.2
CC(C)(C)c1cc(C(=O)NCc2cc(F)cc3c2OCOC3)n(Cc2ccccc2)n1 | -69.0
C[C@@H]1CCCCO[C@@H](CN(C)S(=O)(=O)c2ccccc2)[C@H](C)CN([C@@H](C)CO)C(=O)c2cc(NC(=O)Nc3ccc4c(c3)OCO4)ccc2O1 | 120.8
CCn1c(C(C)C)nc2cc(NC(=O)c3cccc(Cn4cncn4)c3)ccc21 | 47.6
Cc1nc2cc(NC(=O)C3COc4ccccc4O3)ccc2s1 (stereo not given) | 318.6
COc1ccc(C(=O)n2nc(-c3ccco3)nc2N)cc1OC | -6.5
Fc1ccccc1CN1[C@@H]2CNC[C@H]1C2c1ccc(-c2ccccc2)cc1 (stereo not given in full) | -7.8
CN(Cc1cc(C(C)(C)C)n[nH]1)Cc1nc2ccccc2n1C | -20.5
CC(C)CCn1nc(C(=O)N2CCOCC2)c2c1CCN(C(=O)Cn1nc3ccccc3n1)C2 | -46.6
Cc1noc(C)c1NC(=O)N(C)C[C@H]1Oc2cc(C#CCN(C)C)ccc2S(=O)(=O)N([C@H](C)CO)C[C@H]1C | 386.5
O=S(=O)(c1ccccc1)N1CCCC1c1nnc(-c2ccsc2)o1 (stereo not given) | -18.8
O=C(CSc1ccccc1)Nc1ncn[nH]1 | 29.5
Cc1cc(C)n(C2CCN(C(=O)c3cccc(CC4CCNCC4)c3)C2)n1 (stereo not given) | -1.8
COc1cc2c(cc1O)CC[C@@H]1[C@@H]2CC[C@]2(C)[C@@H](O)CC[C@@H]12 | -82.5*!
N=c1ccccn1CC(O)c1ccccc1 (stereo not given) | 22.2
CN1C(=O)CC(c2ccccc2)C1=O (stereo not given) | 9.4
COCC(=O)Nc1ccc2c(c1)OC[C@@H](C)N(Cc1ccccc1C(=O)O)C[C@@H](C)[C@H](OC)CN(C)C2=O | 35.9
FC(F)(F)C1CN(c2nc(-c3ccccc3)no2)CCO1 (stereo not given) | 21.0
COc1ccc(S(=O)(=O)Nc2ccc3c(c2)C(=O)N([C@H](C)CO)C[C@H](C)[C@@H](CN(C)C(=O)Nc2c(C)noc2C)OCCCC[C@H](C)O3)cc1 | 24.8
CCc1nc(SCC(=O)N2CCCC3(CCNCC3)CC2)n[nH]1 | 33.9
COc1ccc(Cl)cc1CNCc1cccnc1 | 6.1
O=c1ccc2cc(S(=O)(=O)NCc3ccccn3)ccc2o1 | 18.3
Cc1ccc(C2(O)CCN(C(=O)c3ccc(-c4ccccc4)[nH]3)CC2)nc1 | -45.1
O=c1[nH]c2ccccc2c(O)c1-c1nc(-c2ccccc2Br)no1 | 57.4
COc1cccc(OCCCN2CCC3(CCCO3)CCC2=O)c1 (stereo not given) | 17.8
CC(C)c1nccc(-c2nccn2CCN2CCCC2=O)n1 | -5.5
COc1cc(-c2ccccc2Cl)ccc1NC(C)=O | 14.6
COc1ccccc1NC(=O)Cn1c(C)cc(=O)c2cccc(OC)c21 | -8.2
COc1ccc(S(=O)(=O)Nc2ccc3c(c2)CC(=O)N([C@@H](C)CO)C[C@H](C)[C@H](CN(C)Cc2ccc(C(=O)Nc4ccccc4N)cc2)O3)cc1 | -12.8
O=C(c1cccs1)N(C(=O)c1cccs1)c1nnc(-c2ccco2)c(-c2ccco2)n1 | -29.1
COc1c(F)cccc1C(=O)N1CCCN2CCC[C@H]2C1 | 3.6
COCCN1C(=O)CCc2cc(NC(=O)c3cccc(OC)c3)ccc21 | 59.3
COCCN(C)C(=O)c1cc(-c2cn(C)c(C)n2)n2ccccc12 | 2.5
CCCCCC(O)c1cccc(OCc2ccc3ccccc3n2)c1 (stereo not given) | 28.6&74.5
CS(=O)(=O)c1cn[nH]c1C1CCCNC1 (stereo not given) | 20.4
Cc1c(Cl)cccc1NC(=O)Cn1c(=O)cc(C(=O)N2CCc3ccccc3C2)c2ccccc21 | 2.9
S=c1cc(-c2ccc(Cl)cc2)ss1 | 104.7
Cc1noc(-c2cc(=O)n(CC(=O)NCc3ccccc3)c3ccccc23)n1 | 37.6
(further entries)
SMILES | Tg IFNy HTS
CC(C)c1nc(CN2CCC(N3CCCCC3)CC2)cc(=O)[nH]1 | 32.9
CCCN1C(=O)CCc2cc(NC(=O)Cc3ccc(OC)c(Cl)c3)ccc21 | -19.5
Cc1noc(C)c1CN(C)C(=O)C1(c2cccs2)CC1(C)C (stereo not given) | -14.0
CCn1nc(CC(C)C)cc1C(=O)N1CCC2(CCCNC2)C1 (stereo not given) | -0.3
COCCCN(Cc1ccco1)c1nc(-c2ccc(OC)cc2)nc2ccccc12 | -8.4
OCc1csc(N2CC(c3cccnc3)C2)n1 | 4.5
CCN1CCn2c(C)cnc2C12CCN(Cc1ccco1)CC2 | -4.7
CC(=O)N1CCCC(c2cncc(-c3cncnc3)n2)C1 (stereo not given) | 6.4
Fc1ccc2nc(CCC#Cc3ccccn3)cn2c1 | 0.9
CN(C)c1ccc(CNC(=O)c2cn3c(n2)CCCC3)cc1 | 74.7
Cc1cccc(NC(=O)c2c(O)c3ccccc3n(-c3ccccc3)c2=O)c1 | 143.7
CCCNC(=O)Nc1ccc2c(c1)C(=O)N(C)C[C@H](OC)[C@@H](C)CN(C)[C@@H](C)CO2 | -48.1
CCN1[C@@H]2CCN(C(=O)CC3CC3)CC[C@@H]2Oc2ccccc2S1(=O)=O | -38.6
CO[C@@H]1CN(C)C(=O)c2cc(NC(=O)c3ccc(F)cc3)ccc2OC[C@H](C)N(C(=O)CC2CC2)C[C@H]1C | 61.8
CC(C)CN1C[C@H]2[C@H](C(=O)N(C)C)CCS(=O)(=O)[C@H]2C1 | 3.4

Copied from the list.
`CN(C)c1ccc(CNC(=O)c2cn3c(n2)CCCC3)cc1` in Tg IFNy HTS is listed with 74.7
`CCN1CCn2c(C)cnc2C12CCN(Cc1ccco1)CC2` in Tg IFNy HTS is listed with -4.7

The list goes on.
SMILES | Tg IFNy HTS
COc1ccc(-c2ccccc2[C@H]2[C@@H](CO)N(C(=O)c3cccnc3)[C@H]2C#N)cc1 | 15.3
CCn1nc(C)c(C(C)NC(=O)C(C)n2cc(Cl)cn2)c1C (stereo not given) | 1.8
Cc1ccc(C(=O)N2CCC3(CC(Nc4ncccn4)C3)C2)cn1 (stereo not given) | -2.2
CC(C)CC(NC(=O)c1cccn(C)c1=O)c1nnc2n1CCNCC2 (stereo not given) | -1.8
COc1cc(Cl)ccc1C(=O)N1C[C@H]2C[C@H](O)[C@H](O)C[C@H]2C1 | -8.0
Cc1noc(C)c1S(=O)(=O)Nc1ccc2c(c1)C(=O)N([C@H](C)CO)C[C@H](C)[C@H](CN(C)C(=O)Nc1cccc3ccccc13)OCCCC[C@H](C)O2 | -57.5
COc1ccccc1C(=O)Nc1ccc(-c2nc(Cn3cccn3)c(C)o2)cc1 | -25.1
Cc1noc(C)c1S(=O)(=O)N(C)C[C@H]1Oc2ccc(NC(=O)c3ccncc3)cc2CC(=O)N([C@H](C)CO)C[C@H]1C | 1.2
CCN(CC)c1ccc(C(=O)N2CCc3c([nH]c4ccccc34)C2c2ccc(F)cc2)cc1 (stereo not given) | ?
Cc1nc(C)c(CC(=O)N[C@H]2CCC[C@H]2Cc2ccc(F)cc2)c(=O)[nH]1 | -1.8
COc1cccc(-c2ccc3c(c2)[C@H]2[C@H](CCN2S(=O)(=O)c2cn(C)cn2)[C@@H](CO)N3)c1 | 4.7
CCOCC1CN(C(=O)c2ccc3c(c2)OCO3)Cc2ccnn2C1 (stereo not given) | 24.3

3 consecutive compounds already listed, quoted:
SMILES | Tg IFNy HTS
O=C(Nc1ccccc1)C1CCN(S(=O)(=O)c2ccc(-n3cnnn3)cc2)CC1 | 8.4
CC(=O)N1CCCc2sc(C(=O)C(C)C)nc21 | 146.0
COc1ccc(C2N(Cc3ccccc3)CCN2Cc2ccccc2)cc1O | -23.8

Bioassay records from PubChem.
